# Assay outcomes (PubChem BioAssay)
# Marburg entry inh – blocks Marburg virus binding to or entry into cells. Marburg virus pseudotyped entry inhibition, cell reporter; control for the full effect not named in the record; about a third of the inactives were read at about 46 µM. actives 1.8% (n = 300,000). Potency, µM (series often up to 37.8 µM), for the others: at the top dose activity change, negative = inhibition, most hits filed as inhibitors; active = well fitted inhibition curve with a large enough effect; inconclusive = small, poorly fitted or top-dose-only effect, or effect the other way; inactive = flat fitted curve, though single readings scatter; tested in HEK293 cells; about a fifth of its hits are not listed in these tables; also: % is scaled to controls: 0 for no effect and ±100 for the full control effect; luciferase read-out
# Cruzain Triton – cruzain (T. cruzi) inhibition with detergent | purified cruzain, Z-FR-AMC fluorescence, 0.01% Triton | Potency, µM, for inactives: max response, negative = inhibition, actives largely listed as inhibitors | actives 0.43% (n = 200,000) | AID 1478;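 also: plate controls were neutral wells for no effect and buffer without enzyme for full effect; nearly all actives have a fitted effect of over 40% in size; top concentration of the series not given in the record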
# Target sequence (P25779 123-467 limits assumed): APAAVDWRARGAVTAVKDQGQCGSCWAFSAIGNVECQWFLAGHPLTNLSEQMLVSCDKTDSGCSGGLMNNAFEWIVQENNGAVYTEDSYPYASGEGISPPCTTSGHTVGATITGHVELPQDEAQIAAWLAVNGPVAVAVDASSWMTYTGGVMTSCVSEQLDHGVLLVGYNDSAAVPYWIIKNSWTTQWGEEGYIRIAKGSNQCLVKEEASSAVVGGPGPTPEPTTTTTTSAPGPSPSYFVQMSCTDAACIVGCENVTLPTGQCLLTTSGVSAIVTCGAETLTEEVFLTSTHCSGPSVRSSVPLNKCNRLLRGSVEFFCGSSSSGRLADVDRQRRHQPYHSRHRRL
#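 Sodium acetate buffer (100 mM, pH 5.5) containing 5 mM DTT and 0.01% Triton X-100 hosted 1.5 nM cruzain and test compound for 15 min at room temperature. Cleavage of 2 uM Z-FR-AMC was then tracked by fluorescence.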
# RE007 growth inh – less growth of the S. pombe RE007 Vpr strain | Potency, µM (doses to about 92.2 µM), without a hit: at the highest dose activity change, negative = less growth | actives 0.21% (n = 360,000) | S. pombe RE007 Vpr strain, BacTiter-Glo ATP luminescence, 24 h; control for the full effect not named in the record; active = well fitted falling curve with a large enough effect; inconclusive = small, poorly fitted or top-dose-only effect; inactive = no such curve, though single readings can be large or run the other way;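 also: % is scaled to controls: 0 for no effect and ±100 for the full control effect; nearly all actives have a fitted effect of over 50% in size; the assay follows cell death caused by Vpr and the record does not say whether a fall means rescue or toxicity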
#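 Fission yeast strain RE007, carrying one chromosomally integrated HIV-1 vpr copy, was seeded at OD 0.01 in PMG+AL medium with 23 nL pinned compound. After 24 h at 30 °C and 99% humidity, viability was read by BacTiter-Glo luminescence.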
# 2A StopGo – FMDV 2A StopGo reporter, luciferase signal | human cells with a luciferase reporter of 2A StopGo recoding; control for the full effect not named in the record | Potency, µM (series often up to 57.9 µM), inactives show at the highest dose signal change, negative = less light | actives 1.2% (n = 410,000); active = well fitted falling curve with a large enough effect; inconclusive = small, poorly fitted or top-dose-only effect; inactive = no such curve, though single readings can be large or run the other way; tested in HEK293T cells; also: % is scaled to controls: 0 for no effect and ±100 for the full control effect; nearly all actives have a fitted effect of over 45% in size; luciferase light after 4 h
# SARS PLP yeast – blocks SARS-CoV papain-like protease in a yeast assay; actives 0.19% (n = 330,000); S. cerevisiae expressing SARS-CoV PLpro, growth rescue; control for the full effect not named in the record; Potency, µM (top dose mostly 32.9 µM), inactives show at the highest dose activity, positive = growth rescue; active means well fitted rising curve with a large enough effect; inconclusive means small, poorly fitted or top-dose-only effect; inactive means no such curve, though single readings can be large or run the other way; also: 0% is about no effect; nearly all actives have a fitted effect of over 55% in size; growth read by luminescence after 48 h
# Lassa entry inh – Lassa virus entry inhibition; Lassa virus pseudotype entry inhibition, cell reporter; control for the full effect not named in the record; Potency, µM (doses to about 37.9 µM), for inactives: at the top dose activity change, negative = inhibition, hits mostly inhibitors; actives 1.2% (n = 300,000); active means well fitted inhibition curve with a large enough effect; inconclusive means small, poorly fitted or top-dose-only effect, or effect the other way; inactive means flat fitted curve, though single readings scatter; tested in HEK293 cells; also: % is scaled to controls: 0 for no effect and ±100 for the full control effect; nearly all actives have a fitted effect of over 50% in size; luciferase read-out
# Cruzain inh noDet – inhibitors of Trypanosoma cruzi cruzain without detergent; P25779; purified cruzain, Z-FR-AMC fluorescence, no detergent; Potency, µM, for inactives: max response, negative = inhibition, hits mostly inhibitors; actives 2.3% (n = 200,000); AID 1476;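 also: plate controls were enzyme without inhibitor for no effect and buffer without enzyme for full effect; nearly all actives have a fitted effect of over 40% in size; top concentration of the series not given in the record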
#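 Purified cruzain at 1.5 nM, pre-incubated 15 min with compound at room temperature in 100 mM sodium acetate pH 5.5, 5 mM DTT, 0.00005% Triton X-100. Reaction started with 2 uM Z-FR-AMC; AMC fluorescence increase over 60 s gives rate.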
# NS1 function inh – inhibitors of influenza NS1 protein function; S. cerevisiae slowed by influenza A NS1, growth recovery by OD600; Potency, µM (doses to about 46.1 µM), inactives show top-dose activity, positive = more growth; actives 0.4% (n = 270,000); AID 2326; active means well fitted rising curve with a large enough effect; inconclusive means small, poorly fitted or top-dose-only effect; inactive means no such curve, though single readings can be large or run the other way; also: nearly all actives have a fitted effect of over 50% in size
#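 OD600 was taken as the measure of yeast growth restored by compound in an NS1-expressing S. cerevisiae strain. Cells had been washed out of glucose medium and diluted 1:100 into galactose -URA medium, pH 6.0.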
# Starred values were filed as active, the others as inactive; ? = inconclusive; / = no result given; & = joins results of further samples; [ ] = remark or other dose. Unless noted, calls follow the shape of the dose curve; as a rule, active = well fitted curve in the direction sought with a large enough effect; inconclusive = small, poorly fitted or top-dose-only effect, or another doubt; inactive = no such curve, though single readings can be large; an effect the other way counts as inactive or inconclusive. Potency is read from the fitted curve at half-maximal effect.
SMILES,Marburg entry inh,Cruzain Triton,RE007 growth inh,2A StopGo,SARS PLP yeast,Lassa entry inh,Cruzain inh noDet,NS1 function inh
COc1cccc(N2CCN(C(=O)CCSCc3ccccc3F)CC2)c1,29.5%&29.5%[46.1 µM],-0.1%,-0.2%,-19.7%&-2.0%,-1.8%,12.3%,17.9%,/
S=c1[nH]nc(COc2ccccc2)n1/N=C/c1ccncc1,/,/,-1.8%,-14.5%,0.0%,/,/,3.4%
N#C/C(=C/c1ccc(N2CCCCC2)cc1)c1cccc(F)c1,-1.1%,-5.5%,2.1%,17.6%,-16.4%,?,2.3%,-11.4%
N#CC1=C(N)NC(SCc2ccccc2)=C(C#N)C12CCCC2,?,-7.9%,-3.0%,?,?,?,-22.5%,7.7%
O=C(CCSc1nc(-c2ccco2)cc(C(F)(F)F)n1)NCCN1CCOCC1,11.0%[46.1 µM],/,0.8%,-1.4%,0.4%,0.7%,/,-2.9%
O=C(C1=NN[C@@H]2C(=O)N(c3cccc(F)c3)C(=O)[C@H]12)c1ccc2ccccc2n1,28.7%,-7.1%,-20.1%,-2.3%,-19.7%,11.8%,-5.4%,-4.2%
O=S1(=O)c2ccccc2N(Cc2cccc(C(F)(F)F)c2)c2ccccc21,/,-12.1%,/,?,/,-25.3%[46.1 µM],?,/
COc1ccc(CN2CCN(C(=O)c3cccc4ccccc34)CC2)cc1Br,?,/,2.1%,-22.8%,-3.0%,-15.3%[46.1 µM],/,-64.4%
Cc1cc(Br)ccc1NC(=O)CCNS(=O)(=O)c1cccc2nonc12,-8.8%[46.1 µM],-2.0%,/,9.3%,/,-4.5%[46.1 µM],-3.9%,/
CC1CCN(S(=O)(=O)c2ccc(NC(=O)c3ccccc3F)cc2)CC1,-25.9%[46.1 µM],/,16.7%,-27.4%,-0.2%,/,/,1.3%
COC(=O)c1ccc(N=Nc2c(C)[nH]n(-c3ccccc3)c2=O)cc1,/,/,4.6%,-3.1%,8.8%,/,/,7.0%
C=CCN1N=C(/C=C/c2ccc(C)cc2)CCC1=O,?,/,29.0%,53.9%[activator],-1.5%,1.0%,/,/
COc1ccc(CCC(=O)NNC(=O)Nc2ccccc2Cl)cc1,-0.9%[46.1 µM],/,14.7%,19.0%,8.6%,?,/,17.0%
COc1ccc(Cn2nnnc2C(c2ccc(F)cc2)N2CCN(C3CCCC3)CC2)cc1 (centres undefined),10µM*,1.3%,4.1%,-9.9%,-1.3%,?,-4.9%,-5.4%
Cc1cccc(OCCCC(=O)NNC(=O)c2cccc(N(C)C)c2)c1,38.1%,/,30.6%,25.7%,-2.0%,10.7%,/,/
Cc1ccc(CNC(=O)c2cccn2-c2nnc(N3CCCC3)s2)cc1,/,2.4%,/,8.0%,/,-12.0%[46.1 µM],-14.0%,/
Cc1ccc(C(=O)NCCCNC(=O)c2ccc(Cl)cc2)cn1,0.6%[46.1 µM],/,-10.8%,-18.2%,-2.9%,6.1%,/,10.7%
CCC1(C)Cc2ccccc2-c2nc(NCCO)n(-c3ccc(C)cc3)c(=O)c21 (centres undefined),?,-18.5%,-2.9%,-29.1%,-3.9%,?,?,-3.9%
CC(CNC(=O)c1cc2cc(S(=O)(=O)N3CCCCC3)ccc2n1C)c1ccccc1 (centres undefined),/,-2.3%,/,?,/,?,-5.2%,/
Cc1ccccc1NC(=S)NN1CCN(C)CC1,16.1%,4.3%,13.8%,-5.5%,3.3%,7.9%,-1.8%,2.0%
C=CCOc1ccc(/C(O)=C2\C(=O)C(=O)N(CCOC)C2c2cccnc2)cc1 (centres undefined),15.7%,0.1%,-0.6%,/,-1.1%,-1.9%,2.9%,-0.1%
CCOc1ccc(N(C)S(=O)(=O)c2ccc(C)c(C(=O)N3CCN(Cc4ccc5c(c4)OCO5)CC3)c2)cc1,-0.6%,/,15.5%,22.4µM*,0.1%,?,/,/
CCOc1ccc(NC(=O)c2ccco2)cc1S(=O)(=O)N1CCCC1,?,/,-5.1%,11.0%,-0.6%,-10.0%,/,/
COc1ccc(CCNC(=S)N2CCN(S(=O)(=O)c3ccccc3F)CC2)cc1,?,/,-17.1%,-9.6%,-9.1%,3.9%,/,-10.5%
CC1(C)NC(=O)N(CC(O)CNC23CC4CC(CC(C4)C2)C3)C1=O (centres undefined),-8.6%,3.8%,13.5%,-29.9%,-1.5%,10.8%,4.7%,?
# Further compounds
SMILES,Marburg entry inh,Cruzain Triton,RE007 growth inh,2A StopGo,SARS PLP yeast,Lassa entry inh,Cruzain inh noDet,NS1 function inh
Cc1ccc(NC(=O)CCCNC(=O)c2ccc(Cl)cc2)c(O)c1,?,/,-4.8%,28.5%,1.1%,12.9%[46.1 µM],/,-1.9%
Cc1ccc(-n2c(=S)[nH]c3sc4c(c3c2=O)CCC4)cc1,?,/,-4.8%,15.3%,0.6%,12.5%,/,5.7%
CCn1c(CCCOc2ccc(Cl)cc2Cl)nnc1SCC(=O)Nc1cccc(F)c1,-18.7%,3.8%,15.4%,21.1%,4.7%,-3.9%,4.8%,8.6%
CC(C)(C)c1ccc(C(=O)NNC(=O)CCc2ccccc2)cc1,13.2%[46.1 µM],/,-16.1%,7.5%,/,8.0%,/,/
CCc1cc(C(=O)NNC(=S)Nc2cccc(C)c2)cs1,20.5%,-3.1%,-23.8%,52.8%[activator],?,?,-1.5%,-10.7%
COc1cc(N2CCOCC2)ccc1/C=C1\C(=O)NC(=O)N(C2CCCCC2)C1=O,17.0%,-2.6%,-5.1%,-11.8%,3.0%,-0.6%,11.7%,5.1%
COc1ccc(CNc2ccccc2)cc1Br,-3.6%,-5.9%,-0.4%,/,0.3%,?,-9.1%,-2.5%
COC(=O)c1ccc(C2C(Oc3ccc(OC)cc3)C(=O)N2CCc2ccc(F)cc2)cc1 (centres undefined),-25.0%,-4.6%,-5.0%,7.3%,-1.1%,?,-17.1%,3.1%
O=S(=O)(c1ccc(Cl)cc1)c1nc(-c2ccccc2Br)oc1NCc1ccccc1,/,-7.4%,/,29.3%,/,14.6%[46.1 µM],?,/
Cc1cc(NC(=O)c2ccccc2F)ccc1-c1nc2ccccc2s1,/,1.7%,/,24.4%,/,-0.3%[46.1 µM],-1.6%,/
CCOC(=O)c1ccc(NC(=O)c2nc[nH]c2C(=O)NCC(=O)OC(C)(C)C)cc1,/,/,-4.5%,-27.0%,-3.1%,/,/,10.1%
Cc1cc(NC(=O)CSc2ccccn2)no1,12.4%,/,-12.7%,10.0%,-1.0%,?,/,/
CCOC(=O)c1cn[nH]c1NC(=S)Nc1ccccc1,?,/,-20.9%,-21.2%,-2.4%,?,/,-7.2%
Cc1cccc(/C=C/c2onc(C)c2S(=O)(=O)N2CCC(C(=O)NC(C)(C)C)CC2)c1,/,/,1.8%,-22.2%,5.1%,/,/,17.0%
COc1ccc(S(=O)(=O)NC(CC(=O)NCc2ccco2)c2ccco2)cc1 (centres undefined),1.6%,-3.1%,8.9%,9.4%,0.1%,9.5%,-6.0%,-0.1%
Cc1[nH]n(-c2ccccc2)c(=O)c1C=Nc1ccc(S(=O)(=O)NC(N)=O)cc1,/,/,3.3%,16.9%,-0.2%,/,/,1.0%
COc1ccc(C(=O)C2CCCN(S(=O)(=O)c3ccc(C(C)=O)cc3)C2)c(C)c1 (centres undefined),/,/,-1.2%,?,-2.2%,/,/,-3.5%
CCOC(=O)Cc1csc(NC(=O)c2ccc(Br)cc2)n1,/,/,-28.4%,?,-11.6%,/,/,-12.0%
Cc1ccc(NC(=O)CN(C)C(=O)C(c2ccccc2)c2ccccc2)cc1,?,/,5.5%,-5.4%,-0.2%,0.6%,/,/
Cc1cc(C(=O)Nc2cccc3ncccc23)no1,?,-4.0%,22.7%,12.3%,-0.9%,4.6%,-7.0%,-10.5%
Cc1ccc(Sc2ccc(NC(=O)c3ccc(S(C)(=O)=O)cc3Cl)cc2)cc1,?,-3.0%,16.7%,-24.1%,?,-0.8%,0.4%,14.1%
Cc1cccnc1NC(=O)C1CCN(S(=O)(=O)c2c(C)noc2/C=C/c2ccco2)CC1,-0.7%,-4.8%,10.8%,0.0%,-3.0%,3.6%,23.5%,7.9%
CCOc1ccc(CCNC(=O)C2COc3ccccc3C2)cc1OCC (centres undefined),/,-2.9%,/,-8.4%,/,2.0%[46.1 µM],7.8%,/
CC(=O)Oc1ccc2ccccc2c1C(NC(=O)Cc1ccccc1)c1ccc(Cl)cc1 (centres undefined),?,1.4%,-7.7%,?,-19.9%,5.4%,-9.8%,10.2%
Cc1c(C=O)c2ccccc2n1Cc1ccccc1,1.9%,/,6.5%,-28.3%,-5.1%,3.0%,/,-19.4%
# (continued)
SMILES,Marburg entry inh,Cruzain Triton,RE007 growth inh,2A StopGo,SARS PLP yeast,Lassa entry inh,Cruzain inh noDet,NS1 function inh
Cc1ccc(S(=O)(=O)N(C)c2ccc(C(=O)O)cc2)cc1,9.6%[46.1 µM],4.1%,-1.0%,19.1%,11.7%,6.1%,-1.6%,-4.0%
COc1cccc(-n2cc3c(=O)n(C)c(=O)n(C)c3c2)c1,?,1.7%,-4.0%,14.7%,-1.0%,?,8.6%,-2.1%
COc1ccc(NC(=O)CCC(=O)Nc2cc(OC)c(NC(=O)c3ccco3)cc2OC)c(OC)c1,-5.7%,/,2.9%,-16.0%,1.5%,9.9%,/,-8.7%
CC1C(=O)CCN(C(C)C)C1C (centres undefined),6.7%,3.2%,-13.7%,-13.7%,6.4%,17.5%,-5.0%,?
CN1C2C=C(N(CCc3ccccc3)C(=O)c3ccc(Cl)cc3)CC1CC2 (centres undefined),?,/,-16.8%,6.4%,0.2%,3.2%,/,-1.5%
Cc1cccc(CNC(=O)C(C)n2nc(C)c3c(C)n(-c4ccccc4)nc3c2=O)c1 (centres undefined),-21.4%[46.1 µM],/,-7.4%,-25.1%,-0.8%,-24.5%[46.1 µM],/,8.4%
CC(C)[C@H](NC(=O)OCc1ccccc1)C(=O)OCC(=O)NC1CCCCC1,22.8%,-8.1%,-6.2%,31.9%[activator],-12.5%,2.7%,-5.4%,-54.4%
COc1cc(/C=N/n2c(-c3n[nH]c4c3CCC4)n[nH]c2=S)ccc1O,/,/,8.4%,4.1%,2.5%,/,/,5.62µM*
Cc1cc(CNCc2cn(C)nc2-c2ccc(Oc3ccccc3)cc2)on1,-23.4%[46.1 µM],/,-2.7%,?,-1.0%,?,/,-6.3%
CC1=NOC(=O)/C1=C/c1ccc(O)cc1,4.3%[46.1 µM],/,-15.4%,-9.7%,-0.7%,1.5%,/,-4.8%
CN(C)C(=O)c1ccc2c3c(cccc13)CC2,-3.1%[46.1 µM],/,-1.7%,7.9%,-0.3%,-5.4%,/,/
